Menin-MLL FL inh: qHTS Assay for Inhibitors Targeting the Menin-MLL Interaction in MLL Related Leukemias: Competition With Fluorescein Labeled MLL-derived Peptide. Fluorescence polarization, fluorescein-MLL peptide displacement from menin. AID 1766, 2009. 290,000 tested, under 10 active. FP activity change, % at 61.4 µM; inconclusive = falling polarisation curve, or a change in total fluorescence; inactive = total fluorescence flat and polarisation flat or rising; no compound was filed as active; the % refers to the polarisation; negative = inhibition;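 further: % of control where 0% means no effect; inhibitors lower the polarisation; unlabelled MLL peptide was the positive control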
TRPML1 agonist: qHTS for Agonists of the Human Mucolipin Transient Receptor Potential 1 (TRPML1); Mucolipin-1 (Homo sapiens), Q9GZU1; activation, % (test concentration not listed); TRPML1-expressing cells, Ca2+ dye fluorescence, FDSS; host cell line not named in the record; reference of the full effect not given here; 410,000 compounds, 0.12% hits; in the data active = activation above about 50%; inconclusive = about 30% to 50%; inactive = below about 30%; further: 0% is about no effect; the text of the record puts the active cut at 80%
Target sequence (Q9GZU1 whole entry, looked up): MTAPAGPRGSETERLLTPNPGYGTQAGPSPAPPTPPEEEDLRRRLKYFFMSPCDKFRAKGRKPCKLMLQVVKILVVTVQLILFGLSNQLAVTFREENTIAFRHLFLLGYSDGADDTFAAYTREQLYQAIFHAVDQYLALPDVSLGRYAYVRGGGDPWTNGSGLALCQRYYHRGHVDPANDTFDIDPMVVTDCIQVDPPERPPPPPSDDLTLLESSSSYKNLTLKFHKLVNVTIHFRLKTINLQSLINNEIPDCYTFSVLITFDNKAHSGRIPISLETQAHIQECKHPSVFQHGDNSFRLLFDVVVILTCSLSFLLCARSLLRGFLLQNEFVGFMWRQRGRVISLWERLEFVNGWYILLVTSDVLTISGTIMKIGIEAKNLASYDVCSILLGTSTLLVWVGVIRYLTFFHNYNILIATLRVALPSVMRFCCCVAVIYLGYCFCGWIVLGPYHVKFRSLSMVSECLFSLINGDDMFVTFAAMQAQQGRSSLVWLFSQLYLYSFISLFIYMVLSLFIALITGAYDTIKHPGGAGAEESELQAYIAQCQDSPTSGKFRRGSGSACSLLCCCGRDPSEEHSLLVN
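Cells: TRPML1-DL, 1X Tet inducer, ~16 h at 37 degrees C/5% CO2. Dye: ABD Ca8 no-wash + quencher, 45-90 min RT. Read: 10 s baseline, compound add, 110 s agonist phase; 54-4 EC80 (4uM final), 110 s antagonist phase.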
TRPML1 inh: qHTS for Inhibitors of the Human Mucolipin Transient Receptor Potential 1 (TRPML1); TRPML1-inducible cells, Ca2+ dye fluorescence, FDSS; active compounds read low; inhibition of EC80 agonist-evoked calcium signal; activity change, negative = inhibition, % (no concentration beside the values); Mucolipin-1 (Homo sapiens), Q9GZU1; 390,000 compounds, 0.02% hits; AID 624415, 2012; in the data active means activity change below about -50%; inconclusive means about -30% to -50%; inactive means above about -30%;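 further: stimulus is agonist 54-4 at its EC80 concentration; on the % scale 0 is the no-effect control and ±100 the full control effect; compound concentration not given in the record; the text of the record puts the active cut at -80%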
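TRPML1-DL cells, Tet-induced overnight (~16 h, 37 °C) at 1,500 cells/well, were loaded with Ca8 no-wash dye plus quencher for 45-90 min at room temperature. Compounds were pinned during FDSS kinetic reading; agonist 54-4 at EC80 (4 uM final) then added.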
gsp agonist: qHTS for Agonist of gsp, the Etiologic Mutation Responsible for Fibrous Dysplasia/McCune-Albright Syndrome: qHTS. gsp mutant cells, cAMP HTRF, 30 min; control for the full effect not named in the record. Potency, µM (top dose mostly 76.9 µM), without a hit: at the top dose activation (cAMP increase), most hits filed as activators. 340,000 compounds, 0.13% hits. AID 624287, 2012; active = well fitted activation curve with a large enough effect; inconclusive = small, poorly fitted or top-dose-only effect, or another doubt; inactive = no such curve, though single readings can be large or run the other way; cell line not stated here;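 further: phosphodiesterase inhibitor Ro 20-1724 added with compounds to block cAMP breakdown; potency means the concentration at half of the fitted maximal effect; nearly all actives have a fitted effect of over 60% in size; about a fifth of the inactives were tested at one dose only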
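Cells in DMEM/10% FBS with G418 were pretreated with compounds in DMSO plus […] (300 uM stock) for 30 min at 37C. cAMP was measured by HTRF (cAMP-d2 plus anti-cAMP antibody-K) after 30 min at room temperature.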
gsp antag: qHTS for Antagonists of gsp, the Etiologic Mutation Responsible for Fibrous Dysplasia/McCune-Albright Syndrome: qHTS. AID 624288, 2012. 340,000 compounds, 0.4% hits. gsp-mutant cells, cAMP HTRF, 30 min; control for the full effect not named in the record. Potency, µM (series often up to 76.9 µM), for inactives: at the highest dose activity change, negative = inhibition, usual class: inhibitors; active = falling curve of any shape with a large fitted effect; inconclusive = falling curve, mostly with a smaller effect; inactive = flat or rising curve; cell line not stated here;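 further: intracellular cAMP measured with PDE inhibitor Ro 20-1724 present during compound exposure; potency means the concentration at half of the fitted maximal effect; on the % scale 0 is the no-effect control and ±100 the full control effect; nearly all actives have a fitted effect of over 65% in size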
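HTRF cAMP measurement after 30 min RT detection following 30 min, 37C compound treatment alongside […] (added as 300 uM solution) in G418-selected cells seeded at 2000/well and grown 16–24 h.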
ClpP mod: qHTS Assay for Activators of ClpP. 340,000 compounds, 1.9% hits. purified B. subtilis ClpP, FRET peptide cleavage, 20 min. ATP-dependent Clp protease proteolytic subunit (Bacillus subtilis (strain 168)), P80244. Potency, µM (doses to about 57.5 µM), without a hit: at the top dose activity change, negative = active; active = well fitted falling curve with a large enough effect; inconclusive = small, poorly fitted or top-dose-only effect; inactive = no such curve, though single readings can be large or run the other way; further: potency means the concentration at half of the fitted maximal effect; the source files actives as falling curves though it sought activators and does not explain the sign; nearly all actives have a fitted effect of over 65% in size; many hits overshoot -100%
Target sequence (P80244 whole entry, looked up): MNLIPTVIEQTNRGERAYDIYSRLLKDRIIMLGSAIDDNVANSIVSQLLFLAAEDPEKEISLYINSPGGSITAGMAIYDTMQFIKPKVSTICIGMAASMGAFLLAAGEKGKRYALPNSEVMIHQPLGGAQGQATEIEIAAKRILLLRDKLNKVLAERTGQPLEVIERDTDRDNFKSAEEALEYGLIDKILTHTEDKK
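FRET quenching reversal measured ClpP activation: 10 microg/mL B. subtilis ClpP at pH 8 with the FRET-FV decapeptide, read at 430 nm after 320 nm excitation. The 20-min minus 0-min signal was scaled between DMSO/no-enzyme wells and ADEP (5.8 microM final).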
* marks the source's active call; other numbers are inactive results; u = inconclusive; x = no result given; [ ] = another dose, or the depositor's remark.

structure	Menin-MLL FL inh	TRPML1 agonist	TRPML1 inh	gsp agonist	gsp antag	ClpP mod
Nc1nc(SCC(=O)NN(c2ccccc2)c2ccccc2)n[nH]1	1.8	-0.2	-13	-9%	5%	x
COc1cc([N+](=O)[O-])ccc1NC(=O)Cc1ccc(F)cc1	7.1	0.0	-3	u	5%	-2.2%
CCCNC(=O)C1(C)CCN(C(=O)COc2ccc(Cl)cc2Cl)C1 (stereo not drawn)	x	-0.1	-7	x	x	-2.1%
Cc1ccc(Sc2cnn(-c3ccccc3)c(=O)c2Cl)cc1	2.1	1.4	18	u	u	-1.6%
CCOCCc1nnc(NC(=O)C(=O)c2cc(C)n(-c3ccc(C)c(C)c3)c2C)s1	x	0.8	13	x	x	0.3%
O=C(Nc1ccc(N=Nc2ccccc2)cc1)c1ccc(Cl)cc1Cl	0.6	0.7	15	12%	13%	-5.8%
O=C(Nc1ccccc1Br)C(Cc1ccccc1)NS(=O)(=O)c1cccc2nsnc12 (stereo not drawn)	x	2.4	-11	x	x	-2.3%
CCn1cc(C(=O)NCCc2ccccc2)c(=O)c2cc(S(=O)(=O)N3CCOCC3)ccc21	x	-0.2	-12	x	x	-9.2%

The list goes on:
structure	Menin-MLL FL inh	TRPML1 agonist	TRPML1 inh	gsp agonist	gsp antag	ClpP mod
CCCc1cc(=O)oc2cc(C)cc(OCc3nn[nH]n3)c12	-0.6	-0.3	13	0%	0%	8.9µM*
Cc1cccc(N(CC(=O)NC(C)(C)C)C(=O)CS(=O)CC(=O)Nc2ccc3c(c2)OCO3)c1 (stereo not drawn)	3.8	1.0	8	25%	0%	0.6%
COCCSc1nnc(NC(=O)CCS(=O)(=O)Cc2ccccc2)s1	x	-0.6	22	u	8%	2.3%
C[C@H]1CN([C@@H](C)CO)S(=O)(=O)c2ccc(C#CC3CC3)cc2O[C@@H]1CN(C)S(C)(=O)=O	x	0.0	1	-48%[inhibitor]	x	-0.5%
CCN(CC(=O)Nc1ccc(Br)cc1)C(=O)Cc1cccc(F)c1	0.2	0.0	4	2%	2%	x
Cc1scc(CN2CCN(c3ccccc3F)CC2)c1C	x	2.7	3	x	x	-0.4%
O=C(COC(=O)c1ccc(F)cc1)NC1CC1	x	0.3	-12	6%	7%	0.5%
Cc1ccc(CN2COc3cc(C)c4c(oc(=O)c5ccccc54)c3C2)cc1	x	-1.0	25	x	x	-12%

(further entries)
structure	Menin-MLL FL inh	TRPML1 agonist	TRPML1 inh	gsp agonist	gsp antag	ClpP mod
CCN(CC)S(=O)(=O)c1ccc2c(c1)N(CC(=O)Nc1ccc(NC(C)=O)cc1)C(=O)CO2	1.1	0.3	5	15%	14%	x
Cc1nn(C)c(C)c1/C=C/C(=O)c1ccccc1	2.5	-0.5	12	14%	10%	-2.1%
COc1ccc(-n2c(SCC(=O)Nc3ccc(NC(C)=O)cc3)nc3c([nH]c4ccccc43)c2=O)cc1OC	x	1.1	18	0%	-9%	u
COC(=O)Cn1cnc2c(nnn2-c2cccc(OC)c2)c1=O	0.6	0.3	3	-2%	14%	-5.2%
Cc1ccccc1OCC(=O)Nc1ccccc1N1CCC(C)CC1	1.1	1.7	5	-31%[inhibitor]	-3%	x
COc1cc(NC(=O)Cc2ccccc2)cc(OC)c1	8.8	-0.2	0	-1%	-3%	-2.5%
O=C(NCCN1CCCC1)c1ccc2c(c1)N(Cc1cccc(Cl)c1)C(=O)c1ccccc1S2(=O)=O	x	1.6	5	7%	10%	-2.6%
N#C/C(=C\C=C\c1ccccc1)C(=O)N1CCCC1	1.4	0.1	-20	-24%[15.4 µM]	-7%	x

Other entries follow:
structure	Menin-MLL FL inh	TRPML1 agonist	TRPML1 inh	gsp agonist	gsp antag	ClpP mod
COc1ccc2oc(C(=O)OCC(=O)NCCc3ccccc3)c(C)c2c1	x	2.0	26	-3%	1%	u
O=C(NC1CC1)C1=C[C@@H](c2csc3ccccc23)C[C@@H](OCCCCO)O1	1.2	0.6	-16	x	-29%	-1.9%
Cc1cccc(C(=O)Nc2ccc(C(=O)N/N=C/c3cccnc3)cc2)c1	0.4	0.9	-3	1%	-2%	x
COc1cc(N/C(=N/S(=O)(=O)c2ccccc2)c2ccccc2)ncn1	2.8	0.7	-8	-13%	10%	-1.5%
COc1ccc(C(=O)OCCN2CCN(C3=NS(=O)(=O)c4ccccc43)CC2)cc1OC	x	-0.4	-13	-6%[15.4 µM]	-2%	x
Cc1cccc(CN2CCc3c(OCC(=O)NCc4ccco4)cccc3C2=O)c1	-2.1	0.4	-5	-5%	-9%	-1.4%
CCOc1ccc(-c2cc(C(=O)NCCCN3CCOCC3)c3ccccc3n2)cc1	x	-0.5	-1	8%	24%	4.0%
O=C(COc1ccc(Br)cc1Cl)NC1CCCCC1	-1.3	0.0	0	-6%	2%	-4.4%

More structures follow:
structure	Menin-MLL FL inh	TRPML1 agonist	TRPML1 inh	gsp agonist	gsp antag	ClpP mod
Cc1cc2c(cc1NS(=O)(=O)c1cccc(C#N)c1)n(C)c(=O)c(=O)n2C	x	0.9	6	x	x	-0.7%
COc1ccc(Br)cc1Cn1nnc(C(=O)Nc2cccc(SC)c2)c1N	x	2.2	1	x	x	u
COc1ccc(CNC(=O)C(C(C)C)N2Cc3ccccc3C2=O)cc1 (stereo not drawn)	x	0.4	11	x	x	2.1%
CCOc1ccccc1NS(=O)(=O)c1ccc2c(c1)CC(C)N2C(=O)C1CC1 (stereo not drawn)	x	0.3	-15	x	x	-0.6%
C/C(Cn1nnc2ccccc21)=N\NC(=O)c1cccc(Br)c1	13	-0.7	60	24%[15.4 µM]	1%	-0.1%
C=C(C)CN1C(=O)C2(OCCO2)c2cc(Br)ccc21	x	0.7	-22	15%[15.4 µM]	-3%	x
N#Cc1ccsc1NC(=O)COC(=O)c1ccc(NC(N)=O)cc1	2.6	0.5	-3	23%	-2%	x
COc1ccc(N(C(=O)C(C)C)S(=O)(=O)c2ccc(Cl)cc2)cc1	-0.1	4.9	39	7%	-23%	-6.2%

The list continues:
structure	Menin-MLL FL inh	TRPML1 agonist	TRPML1 inh	gsp agonist	gsp antag	ClpP mod
COc1cc(NC(=O)Cn2cnc3ccccc3c2=O)c(OC)cc1Cl	0.5	0.9	-8	-94%[inhibitor]	0%	1.2%
Cc1cc(Oc2ccc3ccccc3c2)nc(SCC(=O)c2ccccc2)n1	0.2	1.5	11	-12%	u	-0.4%
CCCCCCNC(=O)O[C@@]12CN(S(=O)(=O)c3ccc(C)cc3)C[C@]1(O)Cn1c(=O)n(CCCCCC)c(=O)n1C2	x	1.0	-4	u	x	-2.7%
CC(C)(C)NC(=O)CCN(/N=C/c1ccccc1)C1=NS(=O)(=O)c2ccccc21	2.6	1.6	-4	-8%	-7%	x
COc1ccc(-c2nc3scc(-c4ccc(OC)c(OC)c4)c3c(=O)o2)cc1	-1.4	0.2	-4	-19%	2%	-1.8%
COc1cc(CNC(=O)c2cnc(C)cn2)cc(OC)c1	-3.3	1.0	28	50%[15.4 µM]	4%	-1.6%
COc1cc(SC)ccc1C(=O)OC1CCOC1=O (stereo not drawn)	-1.5	1.0	0	u	-11%	2.2%
COc1cc(OC)cc(C(=O)Nc2cc(-c3nc4cc(Cl)ccc4o3)ccc2Cl)c1	x	0.2	15	x	x	-7.9%

More structures
structure	Menin-MLL FL inh	TRPML1 agonist	TRPML1 inh	gsp agonist	gsp antag	ClpP mod
N#C/C(=C(/O)CN1CCN(c2ccccc2F)CC1)c1nc(-c2ccccc2)cs1	4.8	0.5	3	-44%[inhibitor]	u	0.7%
CCOC(=O)C1CCN(C(=O)CN(c2ccc(OC)c(OC)c2)S(=O)(=O)c2ccccc2)CC1	1.9	-0.4	6	19%	4%	-0.7%
C=CCOc1cccc(/C=N/NC(=O)CC(=O)NC2CCCCC2)c1	x	0.8	8	-11%	4%	-4.4%
CC1Cc2cc(S(=O)(=O)N3CCN(c4ccccc4)CC3)ccc2N1C(=O)C1CC1 (stereo not drawn)	x	-1.1	-4	2%	8%	2.0%
CCC(OC(=O)c1ccco1)C(=O)NCc1ccc(C)cc1 (stereo not drawn)	3.7	-0.3	5	6%	12%	-0.5%
CN(Cc1ccccc1)C(=O)N1CCOCC1	1.0	x	x	-29%	3%	0.9%
CCc1cc(=O)oc2c3c(cc(OCC(=O)NCc4ccco4)c12)OC(C)(C)CC3	-1.6	x	x	x	-12%	5.0%
CC(=O)c1sc(NC(=O)C2CCN(c3ncnc4sc(C)c(C)c34)CC2)nc1-c1ccccc1	x	0.2	-5	-7%	4%	1.9%

(list continues)
structure	Menin-MLL FL inh	TRPML1 agonist	TRPML1 inh	gsp agonist	gsp antag	ClpP mod
O=[N+]([O-])c1cccc(-c2n[nH]c(=S)n2-c2ccc(Br)cc2)c1	-1.7	1.5	-6	11%	-18%	x
CCC(=O)Nc1ccc(CC)cc1-c1nc2ccccc2n(CC(=O)Nc2cccc(OC)c2)c1=O	x	0.0	5	x	x	0.6%
S=C(Nc1ccccc1)N1CCN(c2ccccc2)CC1	x	0.0	14	u	-4%	x
CC(CCc1ccccc1)NC(=O)c1cccc(F)c1 (stereo not drawn)	-3.8	-0.6	17	-10%[15.4 µM]	8%	1.2%
Cc1occc1C(=O)Nc1ccc(S(N)(=O)=O)cc1	0.1	-0.3	-7	12%	4%	2.0%

One compound at a time (already shown). Order of values: Menin-MLL FL inh	TRPML1 agonist	TRPML1 inh	gsp agonist	gsp antag	ClpP mod
Profile of CC(CCc1ccccc1)NC(=O)c1cccc(F)c1 (stereo not drawn) : -3.8	-0.6	17	-10%[15.4 µM]	8%	1.2%
Profile of S=C(Nc1ccccc1)N1CCN(c2ccccc2)CC1 : x	0.0	14	u	-4%	x
Profile of CCC(=O)Nc1ccc(CC)cc1-c1nc2ccccc2n(CC(=O)Nc2cccc(OC)c2)c1=O : x	0.0	5	x	x	0.6%

Screens as filed in PubChem.
